Screens as filed in PubChem BioAssay.
H5N1 antiviral: MDCK cell protection from H5N1 avian flu. inhibition, % at 50 µM. AID 740. cytopathic effect, luminescence, 72 h; stronger effect = higher value; no value below 0 was filed and about half of the inactive calls have no number; reference of the scale not given here. 0.07% of 96,000 active; in the data active means inhibition above about 25%
Numbers without * were called inactive; i = inactive. Only part of the results is shown, so the mix of outcomes need not match the whole.

SMILES	H5N1 antiviral
O=C(O)c1ccc(Cl)cc1NC(=O)C1CCCO1 (stereo not drawn)	1.3
COc1cccc(OCCNc2cc(N3CCCCC3)ccc2[N+](=O)[O-])c1	2.2
COc1ccccc1-c1cc(C(F)(F)F)nc(S(=O)(=O)CCCC(=O)Nc2cc(C)on2)n1	14
Cc1cc(C)n(-c2nc(NC(C)(C)C)nc(NC(C)(C)C)n2)n1	i
Cn1cccc1P(=O)(c1cccn1C)c1cccn1C	0.4
O=C1CN=C(c2ccc(Br)cc2)c2oc3ccccc3c2N1	0.3
COc1ccc(S(=O)(=O)N2CCN(S(=O)(=O)c3ccc4c(c3)OCCO4)CC2)cc1	0.5
[O-]/[N+](=C\c1ccncc1)c1ccccc1	i
COc1ccc(Cn2c(SC)nc3ccccc32)cc1[N+](=O)[O-]	i
COc1ccccc1N1CCN(C(=O)c2ccc(S(=O)(=O)N3CCCC3)cc2)CC1	0.6
Cn1c(=O)c2c(nc(N3CCCCCC3)n2Cc2cccc3ccccc23)n(C)c1=O	8.0
COc1cccc(C2C3CN(C)CC=C3C(C#N)=C(N)C2(C#N)C#N)c1OC (stereo not drawn)	1.0
O=C(O)c1ccccc1NC(=O)C1CCCO1 (stereo not drawn)	i
COc1ccccc1NC(=O)c1cc(Cl)ccc1NC(=O)c1ccco1	i
C=CCN(C(=O)COc1ccccc1)c1nnc(-c2ccncc2)s1	2.4
CCn1nnnc1SCC(=O)Nc1cccc(C)n1	0.5
COC(=O)c1ccc(CS(=O)(=O)c2ccccc2C)o1	3.9
CCOC(=O)CNC(=O)C(NC(=O)C1CCC(C)CC1)C(C)CC (stereo not drawn)	0.3
CCOC(=O)CSc1nc(C)c2ccccc2n1	0.1
COc1ccccc1CNC(=O)C1CC(c2cccc([N+](=O)[O-])c2)=NO1 (stereo not drawn)	i
Cn1c(SCCCC(=O)c2ccc(F)cc2)nnc1-c1ccncc1	0.3
CCOC(=O)c1c(NC(=O)CSc2nnc(CNC(=O)c3ccco3)n2C)sc2c1CCC2	1.1
Cc1ccc(-c2csc(N3CCC(C(N)=O)(N4CCCCC4)CC3)n2)cc1	1.3
CCn1cc(C(=O)N2CCN(C3CCCCC3)CC2)c2cc(OC)c(OC)cc2c1=O	1.5
COC(=O)c1[nH]c2cc(OC)ccc2c1NC(=O)CCN1CCSCC1	0.2
CCn1c(COc2ccccc2)nnc1SCC(=O)CC(=O)Nc1ccccc1OC	i
Cc1cc(C#N)c(C)n1-c1cc(S(=O)(=O)N2CCOCC2)ccc1N1CCCC1	0.0
CCCc1ccc(-c2c(C)sc(N)c2C#N)cc1	i
COC(=O)NCCOc1nc(N(C)C)nc(N(C)C)n1	i
Nc1c(C(=O)NCCCc2ccccc2)c2nc3ccccc3nc2n1Cc1cccs1	i
Cc1cc(/C=N/NC(=O)c2cccs2)c(C)n1-c1ccccc1	1.0
Cc1occc1C(=O)Nc1cccc(C(=O)O)c1	i
Nc1cccc(N=Cc2c(O)n(Cc3ccc(F)cc3)c(=O)[nH]c2=O)c1	0.1
COc1cccc(-c2cc(C(=O)N3CCCc4ccccc43)no2)c1	0.4
FC(F)(F)c1cccc(-n2nnnc2C2(N3CCOCC3)CCCCC2)c1	3.2
Nc1ccc(S(=O)(=O)c2cccc(N)c2)cc1	0.4
COCCNCC(=O)C12CC3CC(CC(C3)C1)C2	0.3
Cn1c(=O)c2c3c(sc2n2c(SCC(N)=O)nnc12)CC(C(C)(C)C)CC3 (stereo not drawn)	7.0
O=C(C1COc2ccccc2O1)N1CCN(c2ccccc2F)CC1 (stereo not drawn)	i
Cc1c(Br)c(=O)[nH]c(=O)n1COCc1ccccc1	1.6
COC(=O)c1[nH]c2cccc(C)c2c1NC(=O)CN1CCCc2ccccc21	3.0
CCOc1ccc(NC(=O)CN2C(=O)COc3ccc(Cl)cc32)cc1	1.5
COc1ccc2nc3oc(C(=O)N4CCC(C(N)=O)CC4)cc3cc2c1	1.6
Nc1ccc(C(=O)OCc2nc3ccccc3[nH]2)cc1	0.4
CCn1c(Cc2ccccc2)nnc1SCC(=O)Nc1ccc2c(c1)OCCO2	i
CCCOC(=O)Cc1n[nH]c(=O)[nH]c1=O	i
O=C(Cc1ccc(Cl)cc1)N/N=C1\CCCc2ccccc21	i
COc1cc2cc(C(=O)O)n(C)c2c(OC)c1OC	i
CCn1cc([N+](=O)[O-])c(C(=O)Nc2c(C)nn(Cc3c(F)c(F)c(F)c(F)c3F)c2C)n1	0.4
C=CCOc1ccc2ccccc2c1/C=N/O	i
CN(C)S(=O)(=O)c1cccc(C(=O)OCC(=O)c2ccc3c(c2)NC(=O)CO3)c1	i
COc1ccc(-c2cc(C(=O)N3CC4(C)CC3CC(C)(C)C4)no2)cc1 (stereo not drawn)	i
C/C(=N\NS(=O)(=O)c1cccc([N+](=O)[O-])c1)c1cc2ccccc2o1	i
O=C(CSc1ncnc2sc3c(c12)CCCC3)N1CCC(c2noc3ccc(F)cc23)CC1	i
CCOC(=O)c1cccc(NC(=O)CSc2nnc(-c3cccnc3)n2CC)c1	i
CCOC(=O)N1CCN(c2nc(=S)n(-c3ccccc3)c(C)c2C(C)=O)CC1	0.6
Fc1ccc(-c2ccnc(=S)[nH]2)cc1	0.4
C/C(=N\OC(=O)c1ccc(Cl)cc1)c1nccs1	i
NC(=O)COc1ccc(C2c3c(oc4ccccc4c3=O)C(=O)N2CC2CCCO2)cc1 (stereo not drawn)	1.4
Cc1ccc(O)c(-c2cc(-c3cccc(F)c3)n[nH]2)c1	5.4

(next part)
SMILES	H5N1 antiviral
CCOC(=O)NC(NC(=O)OCC)C(=O)c1ccccc1	0.7
COc1ccccc1N1CCN(C(=O)Cn2nnc(-c3ccncc3)n2)CC1	0.5
CCOc1ccc2nc(SCC(=O)c3ccccc3)sc2c1	i
CCS(=O)(=O)N1CCCC(C(=O)NCc2ccccc2Cl)C1 (stereo not drawn)	0.6
CN(C)S(=O)(=O)c1ccc(-c2ccccc2)cc1	0.5
Cc1c(NS(=O)(=O)c2ccc3c(c2)n(C)c(=O)n3C)c(=O)n(-c2ccccc2)n1C	i
CCN(CC)CCNc1ncnc2c1[nH]c1ccc(OC)cc12	i
CC(=O)Nc1cccc(OC(=O)N2CCOCC2)c1	0.6
Cc1ccc2nsnc2c1S(=O)(=O)N(Cc1ccco1)Cc1cc2ccc(C)c(C)c2[nH]c1=O	i
O=P(c1ccccc1)(c1ccccc1)N1CCCCC1	i
CN(C)c1ccc(CNc2ccc3c(c2)ncn3C)cc1	4.5
COc1ccccc1/C=N/n1cnnc1	i
O=S(=O)(c1ccccc1)c1nc(-c2ccco2)oc1NCc1ccccc1	1.8
Cc1ccccc1Oc1cccc(C(=O)/C(C#N)=C/N(C)C)c1	0.1
O=c1oc2ccccc2c2c1SC(C(F)(F)F)C2 (stereo not drawn)	1.3
COc1ccc(S(=O)(=O)N(Cc2cc3cc(C)ccc3[nH]c2=O)CC2CCCO2)cc1 (stereo not drawn)	i
O=S(=O)(c1ccccc1)N(Cc1nc(-c2ccccc2)no1)C1CCCCC1	0.4
Cc1ccc(Cn2nnc3c(=O)[nH]c(C(=O)NCc4ccco4)nc32)cc1	0.1
COc1cc(C(=S)N2CCCC2)ccc1O	0.0
COC(=O)CN1C(=O)CSc2ncccc21	i
Cc1[nH][nH]c(=O)c1N=Nc1ccccc1	0.6
COc1ccccc1-c1cc(N)n(S(=O)(=O)c2ccc(F)c(C)c2)n1	1.1
CCOC(=O)N1CCN(S(=O)(=O)c2ccc(OCC)c(C)c2)CC1	2.3
CCOc1ccc(C2SCC(=O)Nc3c2c(=O)[nH]n3C2CCCCCC2)cc1 (stereo not drawn)	0.5
O=C(Nc1ccc(Cl)cc1)OCc1cn(-c2ccc(Cl)cc2)nn1	i
Cc1ccc(S(=O)(=O)NCC(=O)OC(C)C(=O)Nc2ncc(Cl)cc2Cl)cc1 (stereo not drawn)	i
Cc1cc(C)nc(NC(=O)c2ccc(Cl)c(Cl)c2)n1	i
COc1ccc(NC(=O)Cn2c(=O)n(CC(=O)NCc3ccco3)c(=O)c3ccccc32)cc1OC	i
Cn1c(=O)cc(OCCCC(=O)N2CCN(Cc3ccc4c(c3)OCO4)CC2)c2ccccc21	3.3
O=C(NCCc1csc(-c2ccc(C(F)(F)F)cc2)n1)c1cccs1	i
Cc1ccc(-n2nnnc2SCC(=O)c2cc(C)n(-c3cc(C)on3)c2C)cc1	i
CC(C)CNc1nc(Oc2ccc(=O)n(C)n2)nc(N2CCOCC2)n1	i
CCCN1C(=O)/C(=C/c2ccc(C)s2)SC1=Nc1ccc(OC)cc1	i
CCOC(=O)c1c(C(C)(C)C)oc2ccc(O)cc12	i
O=C(Nn1c(=S)[nH]c2ccccc2c1=O)c1ccncc1	i
Cc1cccc(NC(=O)NCC(c2cccnc2)N2CCOCC2)c1 (stereo not drawn)	0.7

Looked up by structure from the entries so far:
SMILES	H5N1 antiviral
Cc1cc(C)nc(NC(=O)c2ccc(Cl)c(Cl)c2)n1	i
CCCN1C(=O)/C(=C/c2ccc(C)s2)SC1=Nc1ccc(OC)cc1	i
CC(C)CNc1nc(Oc2ccc(=O)n(C)n2)nc(N2CCOCC2)n1	i
Cc1ccc(S(=O)(=O)NCC(=O)OC(C)C(=O)Nc2ncc(Cl)cc2Cl)cc1 (stereo not drawn)	i
CCOC(=O)c1c(C(C)(C)C)oc2ccc(O)cc12	i

Additional compounds follow.
SMILES	H5N1 antiviral
CCC(C)NC(=O)c1n[nH]c(=O)c2ccccc12 (stereo not drawn)	0.2
O=C(Nc1ccncc1)Nc1ccc(F)cc1F	i
Cc1ccc(-c2nn3nnnc3c3ccccc23)cc1C	0.1
COC(=O)c1c(C(=O)OC)c(-c2ccc(C)cc2)n2c1CS(=O)C2 (stereo not drawn)	i
Cc1ccc(-c2nnn(CC(=O)N(Cc3cccs3)C(C(=O)NC3CCCC3)c3ccco3)n2)o1 (stereo not drawn)	i
Cc1ccc(S(=O)(=O)Oc2ccc(C3C4=C(CCCC4=O)OC4=C3C(=O)CCC4)cc2)cc1	i
CCc1ccc(CCC(=O)Nc2ccc(S(N)(=O)=O)cc2)o1	0.5
CCOC(=O)c1cnc(SCc2cccc3ccccc23)nc1N	i
COc1ccc(/C=C/C(=O)NCc2cnn(C)c2C)cc1COc1ccc(Br)cc1	i
CCN1CCCC1CNC(=O)CN1C(=O)COc2ccc(C)cc21 (stereo not drawn)	1.7
C[C@@H](C(=O)NCc1ccccc1)N1C(=O)C2CC=CCC2C1=O (stereo partly drawn)	i
NC12CN3CN(CN(C3)C1)C2 (tested in a mixture with another compound)	i

As a working copy, six of the compounds above.
SMILES	H5N1 antiviral
CCC(C)NC(=O)c1n[nH]c(=O)c2ccccc12 (stereo not drawn)	0.2
O=C(Nc1ccncc1)Nc1ccc(F)cc1F	i
Cc1ccc(-c2nn3nnnc3c3ccccc23)cc1C	0.1
COC(=O)c1c(C(=O)OC)c(-c2ccc(C)cc2)n2c1CS(=O)C2 (stereo not drawn)	i
Cc1ccc(-c2nnn(CC(=O)N(Cc3cccs3)C(C(=O)NC3CCCC3)c3ccco3)n2)o1 (stereo not drawn)	i
Cc1ccc(S(=O)(=O)Oc2ccc(C3C4=C(CCCC4=O)OC4=C3C(=O)CCC4)cc2)cc1	i

A draw from above in order of heavy-atom count, lowest first:
SMILES	H5N1 antiviral
O=C(Nc1ccncc1)Nc1ccc(F)cc1F	i
Cc1ccc(S(=O)(=O)Oc2ccc(C3C4=C(CCCC4=O)OC4=C3C(=O)CCC4)cc2)cc1	i
Cc1ccc(-c2nnn(CC(=O)N(Cc3cccs3)C(C(=O)NC3CCCC3)c3ccco3)n2)o1 (stereo not drawn)	i

(list continues)
SMILES	H5N1 antiviral
CCCCC(c1nnnn1C1CCCC1)N1CCN(C(=O)c2ccco2)CC1 (stereo not drawn)	2.9
Nc1nncn1C(=O)CCc1ccccc1	i
Cc1cc(N2CCC(C)CC2)nc(-n2nc(C)cc2C)n1	i
CCOC(=O)Cc1csc(NC(=O)c2c(-c3c(Cl)cccc3Cl)noc2C)n1	0.5
O=C(N/N=C\c1ccc(COc2ccc([N+](=O)[O-])cc2)o1)c1ccc(Cl)cc1	0.6
CCN(CC)CCCNc1nc2cc(OC)c(OC)cc2c2nc(-c3cccnc3)nn12	1.4
O=c1c2ccccc2sn1-c1ccccc1	1.2
CCOC(=O)c1cn(CC(=O)Nc2ccc(C)cc2)nn1	0.4
CSc1cccc(NS(=O)(=O)c2cccs2)c1	2.1
C=CCc1c(C)nc2c(C(=O)O)cnn2c1C	i
CCC(=O)NC(C)c1nc2ccccc2n1C (stereo not drawn)	i
Cc1ccc(OCc2nc(C#N)c(NCc3ccc4c(c3)OCO4)o2)cc1	0.9
Cc1cc(NCCNC2=CC(=O)CCC2)nc2ccccc12	0.3
CC(C)NS(=O)(=O)c1ccc(OCC(N)=O)c(Cl)c1	0.4
CCCCOc1ccc(C(=O)NCCCC(=O)N2CCCCC2)cc1	i
CC(C)CC(=O)NC(=S)Nc1ccccc1C(=O)Nc1ccccc1	0.1
O=C(CC1CC2CCC1C2)OCC(=O)c1c[nH]c2ccccc12 (stereo not drawn)	1.4
Cc1cc(Cl)ccc1OCC(=O)NCCOc1nc(N2CCOCC2)nc(N2CCOCC2)n1	0.3
Cc1ccc(CSc2nnc3nc(C)cc(C)n23)cc1	1.8
CCn1c(SCc2ccc(OC)cc2)nnc1-c1ccncc1	1.0
CC1CCCCC1NC(=O)COc1ccc(-n2cnnn2)cc1 (stereo not drawn)	0.3
Cc1nc(N2CCN(C)CC2)[nH]c(=O)c1Cc1cccc2ccccc12	i
CCN(CC)C(=O)CSc1nsc(SCC(=O)N(CC)CC)c1C#N	i
O=c1c2[nH]c3cccc(Cl)c3c2ncn1Cc1ccncc1	i
O=C(NCc1cccs1)C1CC(=O)N(C2CCCC2)C1 (stereo not drawn)	0.6
CCOCCCn1c(=S)[nH]c2cc(C(=O)N3CCOCC3)ccc2c1=O	0.0
CC1CCN(CC(C)CNC(=O)c2cc(-c3ccccn3)nc3ccccc23)CC1 (stereo not drawn)	1.1
CCCC(N)CCCCCC(=O)O (stereo not drawn)	i
O=S(=O)(NCc1ccccc1)c1cccc2nonc12	1.7
COc1cc(OC)cc(C(=O)NCc2n[nH]c(=S)n2-c2ccccc2OC)c1	0.4
CC1(C)Oc2ccc3ccc(=O)oc3c2-c2cn[nH]c21	i
